# Cruzain noTriton = blocks cruzain activity in detergent-free assay; P25779; actives 2.3% (n = 200,000); Potency, µM, inactives show max response, negative = inhibition, most hits filed as inhibitors; purified cruzain, Z-FR-AMC fluorescence, no detergent;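 further: plate controls were enzyme without inhibitor for no effect and buffer without enzyme for full effect; nearly all actives have a fitted effect of over 40% in size; top concentration of the series not given in the record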
# Target sequence (P25779 123-467 limits assumed): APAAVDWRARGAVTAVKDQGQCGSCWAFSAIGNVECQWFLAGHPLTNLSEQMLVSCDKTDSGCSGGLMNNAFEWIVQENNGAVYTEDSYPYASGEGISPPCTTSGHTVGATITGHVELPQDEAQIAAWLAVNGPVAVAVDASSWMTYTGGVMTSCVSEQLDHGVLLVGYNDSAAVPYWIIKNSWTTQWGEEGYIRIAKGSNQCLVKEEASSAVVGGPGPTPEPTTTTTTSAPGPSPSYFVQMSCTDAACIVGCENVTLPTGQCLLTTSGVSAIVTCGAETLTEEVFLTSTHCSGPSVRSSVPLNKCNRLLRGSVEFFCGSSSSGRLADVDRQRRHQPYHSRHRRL
#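 Purified cruzain at 1.5 nM, pre-incubated 15 min with compound at room temperature in 100 mM sodium acetate pH 5.5, 5 mM DTT, 0.00005% Triton X-100. Reaction started with 2 uM Z-FR-AMC; AMC fluorescence increase over 60 s gives rate.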
# Cruzain Triton = blocks cruzain activity in presence of Triton detergent; P25779; purified cruzain, Z-FR-AMC fluorescence, 0.01% Triton; Potency, µM, without a hit: max response, negative = inhibition, hits mostly inhibitors; actives 0.43% (n = 200,000); AID 1478;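 further: plate controls were neutral wells for no effect and buffer without enzyme for full effect; nearly all actives have a fitted effect of over 40% in size; top concentration of the series not given in the record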
#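 Steps: dispense cruzain (1.5 nM final) in acetate buffer pH 5.5 with DTT and 0.01% Triton X-100; pin-transfer compounds; incubate 15 min RT; add Z-FR-AMC (2 uM final); read fluorescence every 30 s, using the 60 s intensity change.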
# 2A StopGo = FMDV 2A StopGo reporter, luciferase signal. human cells with a luciferase reporter of 2A StopGo recoding; control for the full effect not named in the record. Potency, µM (series often up to 57.9 µM), without a hit: at the top dose signal change, negative = less light. actives 1.2% (n = 410,000). AID 1159524; active = well fitted falling curve with a large enough effect; inconclusive = small, poorly fitted or top-dose-only effect; inactive = no such curve, though single readings can be large or run the other way; tested in HEK293T cells; further: on the % scale 0 is the no-effect control and ±100 the full control effect; nearly all actives have a fitted effect of over 45% in size; luciferase light after 4 h
# SARS PLP yeast = inhibitors of SARS-CoV papain-like protease in yeast. Potency, µM (top dose mostly 32.9 µM), without a hit: at the highest dose activity, positive = growth rescue. actives 0.19% (n = 330,000). S. cerevisiae expressing SARS-CoV PLpro, growth rescue; control for the full effect not named in the record; active means well fitted rising curve with a large enough effect; inconclusive means small, poorly fitted or top-dose-only effect; inactive means no such curve, though single readings can be large or run the other way; further: 0% is about no effect; nearly all actives have a fitted effect of over 55% in size; growth read by luminescence after 48 h
# Lassa entry inh = Lassa virus entry inhibition; Lassa virus pseudotype entry inhibition, cell reporter; control for the full effect not named in the record; Potency, µM (series often up to 37.9 µM), inactives show at the top dose activity change, negative = inhibition, most hits filed as inhibitors; actives 1.2% (n = 300,000); active means well fitted inhibition curve with a large enough effect; inconclusive means small, poorly fitted or top-dose-only effect, or effect the other way; inactive means flat fitted curve, though single readings scatter; tested in HEK293 cells; further: on the % scale 0 is the no-effect control and ±100 the full control effect; nearly all actives have a fitted effect of over 50% in size; luciferase read-out
# NS1 function inh = influenza NS1 inhibition; Potency, µM (titrated, usually from 46.1 µM), without a hit: top-dose activity, positive = more growth; actives 0.4% (n = 270,000); S. cerevisiae slowed by influenza A NS1, growth recovery by OD600; active means well fitted rising curve with a large enough effect; inconclusive means small, poorly fitted or top-dose-only effect; inactive means no such curve, though single readings can be large or run the other way; further: nearly all actives have a fitted effect of over 50% in size
#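 S. cerevisiae expressing influenza A NS1, grown in glucose, washed, then diluted 1:100 into pH 6.0 -URA galactose medium with 23 nl compound. Growth recovery read as OD600; NS1-free strain serves as control.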
# MARV entry inh = Marburg virus entry inhibition | Marburg virus pseudotyped entry inhibition, cell reporter; control for the full effect not named in the record; about a third of the inactives were read at about 46 µM | Potency, µM (doses to about 37.8 µM), without a hit: at the top dose activity change, negative = inhibition, hits mostly inhibitors | actives 1.8% (n = 300,000) | AID 540276; active = well fitted inhibition curve with a large enough effect; inconclusive = small, poorly fitted or top-dose-only effect, or effect the other way; inactive = flat fitted curve, though single readings scatter; tested in HEK293 cells; about a fifth of its hits are not listed in these tables; further: on the % scale 0 is the no-effect control and ±100 the full control effect; luciferase read-out
# RE007 growth inh = less growth of the S. pombe RE007 Vpr strain | actives 0.21% (n = 360,000) | Potency, µM (titrated, usually from 92.2 µM), inactives show top-dose activity change, negative = less growth | S. pombe RE007 Vpr strain, BacTiter-Glo ATP luminescence, 24 h; control for the full effect not named in the record; active = well fitted falling curve with a large enough effect; inconclusive = small, poorly fitted or top-dose-only effect; inactive = no such curve, though single readings can be large or run the other way;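 further: on the % scale 0 is the no-effect control and ±100 the full control effect; nearly all actives have a fitted effect of over 50% in size; the assay follows cell death caused by Vpr and the record does not say whether a fall means rescue or toxicity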
#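 Fission yeast strain RE007, carrying one chromosomally integrated HIV-1 vpr copy, was seeded at OD 0.01 in PMG+AL medium with 23 nL pinned compound. After 24 h at 30 °C and 99% humidity, viability was read by BacTiter-Glo luminescence.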
# * marks the source's active call; other numbers are inactive results; u = inconclusive; x = not tested or not shown; & = joins results of further samples; [ ] = remark or other dose. Unless noted, the call rests on the fitted dose curve; in most records, active means well fitted curve in the direction sought with a large enough effect; inconclusive means small, poorly fitted or top-dose-only effect, or another doubt; inactive means no such curve, though single readings can be large; an effect the other way counts as inactive or inconclusive. Potency means the concentration at half of the fitted maximal effect. Rows are unselected; 4.7% or so of the library scored in one or more.
SMILES | NS1 function inh | Lassa entry inh | RE007 growth inh | 2A StopGo | SARS PLP yeast | MARV entry inh | Cruzain noTriton | Cruzain Triton
Cc1ccc(OCCCn2c(-c3ccc(Cl)cc3)nc3ccccc3c2=O)c(C)c1 | x | 8.8%[46.1 µM] | x | -3.1% | x | 1.5%[46.1 µM] | -0.1% | 0.1%
COc1cccc(CCc2nnc(CCC(=O)N3CCCC3c3nccs3)o2)c1 (configuration not stated) | 1.6% | x | 23.0% | 0.5% | -0.2% | x | x | x
CCOC(=O)c1[nH]c2ccccc2c1N=C(C)N(CC)CC | -3.4% | 8.5% | 21.0% | 7.4% | 4.2% | -23.4% | 1.4% | 2.6%
O=c1[nH]c(=O)n(Cc2ccco2)c2c1C(C(F)(F)F)(C(F)(F)F)N=C(c1ccc(F)cc1)N2 | 14.0% | u | -1.7% | 4.47µM* | 10.4% | u | u | -19.8%
COc1ccc(/C=N/Nc2ccc(C(=O)O)cc2)c(OC)c1OC | -2.1% | u | 1.1% | 40.9%[activator] | -1.2% | u | x | x
O=C(CCc1nc2ccccc2[nH]1)N1CCN(C(=O)c2ccco2)CC1 | -6.0% | u | -22.5% | -23.5% | 9.9% | -0.2% | 7.3% | 1.3%
O=C(NCc1ccccc1Cl)c1ccc2c(c1)SC1=NS(=O)(=O)CCN12 | -1.4% | x | -5.9% | -25.4% | -0.5% | x | x | x
O=C(NCCCN1CCOCC1)c1ccc(Sc2ccc(Br)cc2)c([N+](=O)[O-])c1 | -8.9% | 25.5% | -2.0% | -1.7% | -3.7% | 0.0% | 4.8% | -2.8%
COC(=O)c1cc(OC)c(OC)cc1NC(=O)CCC1CCCC1 | -3.3% | 6.5% | 1.0% | -6.4% | 3.0% | -16.6% | u | -3.8%
Cc1ccn2c(=O)c(C(=O)NCCCN3CCCC3=O)c(O)nc2c1 | 4.7% | x | -9.4% | -7.0% | -5.3% | x | x | x
COc1ccc(N(CC(=O)NC2CCCC2)C(=O)CCC(=O)Nc2cc(C)on2)c(OC)c1 | -2.4% | -0.6% | 4.3% | 5.0% | 6.1% | -0.4% | 14.5% | 1.2%
CCn1c(=O)[nH]c2ccccc2c1=O | -0.4% | -1.3% | -10.7% | 36.7%[activator] | -8.6% | -9.5%[46.1 µM] | 0.5% | 3.8%
COc1ccc(OC)c(C(c2nnnn2C2CCCC2)N2CCN(c3ccccc3F)CC2)c1 (configuration not stated) | -58.7% | u | 0.2% | 11.4% | -13.4% | 10µM* | 10.0% | -5.9%
O=C1/C(=C\c2ccc(-c3ccccc3Cl)o2)SC(=S)N1CC1CCCO1 (configuration not stated) | 9.5% | 2.5% | -3.5% | 19.2% | -4.4% | 7.2% | 15.8µM* | -4.1%
O=C(NCC1CCCO1)C1CCN(S(=O)(=O)N2CCCC2)CC1 (configuration not stated) | -8.2% | 7.2% | -17.4% | x | 4.0% | 12.1% | 1.0% | 2.9%
Cc1ccc(C(=O)N/C(=C\c2ccc(Br)cc2)c2nc(=S)[nH][nH]2)cc1 | u | u | -12.3% | x | -14.1% | -15.3% | 23.2% | -13.0%
CCn1c(NCc2ccco2)nc2c1c(=O)n(C)c(=O)n2C | 4.5% | 16.8% | -5.3% | -21.9% | 4.4% | -0.3% | -9.2% | -1.0%
COc1ccc(Cl)cc1NC(=O)CN(C)C(=O)C1CCN(C(=O)Nc2ccccc2)CC1 | x | 5.7% | -19.9% | -28.5% | 0.7% | -6.7% | x | x
C=CCN(Cc1cc(OC)ccc1OC)C(=O)c1cc2ccc(OC)cc2[nH]1 | -0.9% | x | -0.1% | -12.9% | -2.2% | x | x | x
COc1ccc(CCNc2oc(-c3cccc4ccccc34)nc2P(=O)(OC)OC)cc1OC | 5.9% | -10.3% | -6.6% | -18.2% | 19.9% | u | u | u
CC(C)(C)C(=O)O[C@H]1CC[C@@]2(C)C(=CC(=O)C3C2CC[C@]2(C)C(=O)[C@@H](F)CC32)C1 (some centres not stated) | x | u | -4.3% | u | 2.4% | 4.1% | x | x
Cc1cc(C)c2c(-n3cccc3)c(C(=O)NCc3cccc(F)c3)sc2n1 | x | -1.2%[46.1 µM] | x | 1.1% | x | 6.5%[46.1 µM] | 6.8% | -2.3%
COc1cccc(C2=NN(C(=O)CCCC(=O)O)C(c3cccs3)C2)c1 (configuration not stated) | 4.1% | x | 6.0% | 17.4% | -0.6% | x | x | x
COc1ccnc(Nc2ccc(C)c(C)c2)c1C#N | 6.5% | -17.7% | -0.2% | x | 2.1% | -3.6% | -2.1% | 1.9%
Cc1c(CC(=O)O)c(=O)oc2c(C)c3occ(-c4ccccc4)c3cc12 | 10.6% | u | 7.6% | -1.6% | 0.4% | u | x | x
O=C(Cn1cnc2c(oc3ccccc32)c1=O)NCc1ccccc1 | 7.1% | x | 6.4% | -1.0% | -2.8% | -3.9% | -4.2% | -5.6%
O=C(Cc1ccc(Cl)cc1)NCCN1CCN(C(=O)Cc2ccc(Cl)cc2)CC1 | -1.4% | 5.5%[46.1 µM] | -22.5% | -24.7% | -0.9% | 4.0%[46.1 µM] | x | x
COc1ccccc1C(=O)NC(CCSC)C(=O)NC1CCCCCC1 (configuration not stated) | -4.7% | -7.0% | 3.7% | 26.9% | 0.1% | u | x | x
CN(C)S(=O)(=O)Oc1ccsc1C(=O)Nc1cccc(Cl)c1 | -6.3% | 5.7% | -23.0% | u | -21.6% | -11.3% | 9.2% | -1.1%
O=C(O)CCc1nn2c3ccccc3n(CC(=O)c3ccccc3)c2nc1=O | 2.1% | 13.0% | 11.0% | 10.8% | 0.9% | 18.9% | 0.8% | 3.6%
CCc1ccccc1NC(=O)CSc1nc(C)c(C)o1 | -24.8% | 4.8%[46.1 µM] | -7.4% | -12.6% | 2.1% | -1.1%[46.1 µM] | x | x
CCOc1cc(S(=O)(=O)Nc2ccncc2)ccc1F | 7.6% | x | -15.4% | -10.3% | 0.5% | x | x | x
Cc1ccc(C(=O)NC2CCCCC2)cc1S(=O)(=O)N1CCCC1 | -20.1% | -1.5% | 0.4% | 58.3%[activator] | 2.5% | u | x | x
COc1cccc(COC(=O)C2CCN(S(=O)(=O)c3cccs3)CC2)c1OC | x | 3.1% | 17.0% | -16.7% | 4.5% | 29.2%[46.1 µM] | x | x
O=C(CN1CCOCC1)NN=C1CCCCCCCCCCC1 | -2.6% | u | 1.8% | -7.6% | 7.1% | u | 12.5% | -1.9%
Cc1nc(-c2ccc(F)cc2)c(CC(=O)N(C)CC(=O)Nc2ccccc2Br)s1 | x | 11.4%[46.1 µM] | -11.6% | -7.6% | -5.3% | -13.1% | x | x
Cc1ccccc1NC(=O)c1cc2ccccc2o1 | -17.1% | -26.4%&0.3%[46.1 µM] | -26.0% | 8.3%&21.7% | 0.4% | u | -8.8% | 0.8%
CNC[C@H](CC1CCCCC1)NC[C@H](CO)NCC1(c2ccccc2)CC1 | -10.2% | x | -7.3% | -14.3% | -6.1% | x | x | x
CCOc1ccc(CC2c3cc(OCC)c(OCC)cc3CCN2C(=O)c2cc(OC)c(OC)c(OC)c2)cc1OCC (configuration not stated) | 9.0% | 2.06µM* | 9.3% | u | 3.1% | u | u | -2.6%
O=C(Nc1ccccc1Cl)N1CCCN(c2nc(-c3ccccc3)ns2)CC1 | 6.6% | x | -10.4% | u | -1.6% | x | x | x
CC(C)(C)NC(=O)C1c2ccccc2Oc2ccccc21 | -0.9% | x | 1.3% | 3.1% | -0.7% | x | x | x
CCCn1c(C(C)Nc2nc(-c3cc(Cl)c(N)c(Cl)c3)cs2)nc2cc(Cl)c(N3CCCCC3)cc21 (configuration not stated) | 21.6% | x | 6.8% | -20.2% | 1.5% | x | x | x
COC(=O)c1cc(NS(=O)(=O)c2ccc(NC(C)=O)cc2)cc(C(=O)OC)c1 | -6.7% | 9.2% | 23.8% | 3.1% | -3.8% | u | 6.3% | 0.4%
CCCCc1ccc(NC(=S)NCc2cccc(OC)c2)cc1 | -52.2% | u | -11.0% | 8.3% | -4.5% | u | x | x
Clc1ccc(CN2CCC(Cc3ccccc3)CC2)cc1 | 0.4% | -3.9% | -16.7% | -17.0% | -13.5% | u | 4.4% | 0.3%
C=CCNC(=O)CC(=O)N/N=C/c1ccccc1F | 14.2% | -6.2% | -11.8% | x | 9.9% | -5.7% | 7.7% | 2.3%
O=c1[nH]nc2c3ccccc3cnn12 | 7.7% | 1.4% | 7.1% | -2.7% | -1.1% | 3.5% | -3.7% | 0.2%
Cc1ccc(C)c(N2CCN(CCCNC(=O)Cn3cc4c(n3)CCC(C)C4)CC2)c1 (configuration not stated) | -1.2% | x | 1.7% | 0.0% | 0.9% | -0.6% | -1.7% | 7.9%
CN1CCN(Cc2oc(CO)cc(=O)c2O)CC1 | 2.5% | 17.0% | 0.2% | 6.2% | 0.0% | -9.7% | -4.7% | -3.9%
Cc1ccc(C(=O)N2CCN(C(=O)CN3CCCC3)C2)cc1 | 3.9% | 1.4% | 0.4% | -16.8% | -3.5% | -14.9% | 6.1% | 1.7%
CCCCN(C)CCCNC(=O)CCn1nc(-c2ccccc2)ccc1=O | -9.3% | 20.1% | 7.0% | -8.7% | 0.9% | u | 2.9% | -1.1%
COCCCNc1nc2c(c(=O)n(Cc3ccccc3)c(=O)n2C)n1C | x | 10.6%[46.1 µM] | x | -11.3% | x | -0.3%[46.1 µM] | -3.0% | -1.6%
Cc1ccc2nc(/C(C#N)=C/c3ccc(-c4ccc(F)cc4F)o3)[nH]c2c1 | x | -14.0%[46.1 µM] | x | -21.6% | x | x | 10µM* | -12.0%
CCCCC(=O)NC(NC(=O)CCCC)c1ccc(OCCC)c(OC)c1 | 4.7% | 25.4% | -3.0% | -7.9% | 15.9% | -5.5% | u | 0.3%
O=C(COC(=O)c1cccc(S(=O)(=O)N2CCc3ccccc32)c1)Nc1ncc(Cl)cc1Cl | 25.6% | 1.1% | -0.2% | -3.7% | 24.2% | -2.8% | u | -3.7%
CN(CC(=O)Nc1ccccc1Cl)C(=O)COC(=O)CCN1C(=O)C2CC=CCC2C1=O (configuration not stated) | x | -18.6% | u | -10.8% | 1.4% | -16.0% | x | x
